Screens: PubChem BioAssay, several laboratories
ALR inh: inhibitors of human ALR sulfhydryl oxidase, primary screen, biochemical, H2O2 detection, HRP-luminol luminescence, single point | purified ALR, DTT oxidation | inhibition, % (concentration not given with the values) | 290,000 compounds, 3.8% hits | AID 485317, 2010;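 active = mean and each replicate at 75% or more; inconclusive = only one of the two met; inactive = neither met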;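 note: stock transfer was 7.5 nL into about 7.5 µL; 0% = neutral wells and 100% = wells with inactivated enzyme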
Target sequence (P55789 whole entry, looked up): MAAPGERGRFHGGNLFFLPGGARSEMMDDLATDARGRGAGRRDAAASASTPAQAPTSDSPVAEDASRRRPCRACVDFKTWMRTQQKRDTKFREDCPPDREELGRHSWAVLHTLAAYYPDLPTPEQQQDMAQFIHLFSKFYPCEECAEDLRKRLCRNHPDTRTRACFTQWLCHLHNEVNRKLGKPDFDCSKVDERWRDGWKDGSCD
E coli growth: E. coli growth inhibition, primary screen, OD600; Escherichia coli growth, 23 h; stronger effect = lower value; OD600 absorbance (no concentration beside the values); 330,000 compounds, 0.21% hits;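 active = OD600 absorbance below the run mean of sample wells minus 3.6 SD, in any replicate, cut at about 0.56 in these data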;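 note: stock transfer was 300 nL into about 60 µL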
Vif TR-FRET: inhibitors of Vif binding to APOBEC3G peptide, primary screen, biochemical, TR-FRET, GST-Vif 1-94, biotin-A3G peptide, dose response retest (AID 1117319) | Virion infectivity factor (Human immunodeficiency virus type 1 group M subtype B (isolate … | TR-FRET GST-Vif / biotin-A3G peptide binding; higher % means a stronger effect; test concentration not given here; strong numbers were not always called active | inhibition, %; hits with a dose series show IC50 in µM | 260,000 compounds, 0.57% hits;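 active = above the screen mean plus three standard deviations and confirmed in dose response; inconclusive = results disagree or hit not tested in dose response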;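 note: Vif residues 1-94 fused to GST binding biotinylated APOBEC3G peptide 110-148; 0% = full assay without inhibitor and 100% = GST in place of GST-Vif; retest series ran down from 100 µM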
FGF22 binding: binders of human FGF22 protein, primary screen, FGF22 synaptogenesis inhibitor project, biophysical, thermal shift, single point | recombinant FGF22 thermal shift, SYPRO orange fluorescence; percent of sucrose octasulfate shift, DMSO zero | calls only at 9.99 µM | 340,000 compounds, 1.5% hits | AID 651658, 2012;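 active = melting point raised past a set limit in the mean and every replicate; inconclusive = no clear call; three in four hits are not shown here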
Target sequence (Q9HCT0 whole entry, looked up): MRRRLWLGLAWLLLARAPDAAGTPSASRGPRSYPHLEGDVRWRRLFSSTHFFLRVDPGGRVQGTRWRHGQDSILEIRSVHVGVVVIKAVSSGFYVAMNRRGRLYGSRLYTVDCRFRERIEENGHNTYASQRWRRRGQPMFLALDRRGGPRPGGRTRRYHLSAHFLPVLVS
HNF4A DNA FP: change in binding of human HNF4A to DNA, primary screen, biochemical, fluorescence polarization, FITC-DNA | AID 1224865, 2016 | 360,000 compounds, 0.3% hits | activity change, % at 10 µM | 1 h | Hepatocyte nuclear factor 4-alpha (Homo sapiens), P41235; in the data active = activity change above about 30%, passing the limit was not always enough;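 note: controls were the assay level and a saturating level of protein; the project sought stronger binding though the title names inhibitors; some compounds called inactive have numbers as strong as hits; positive values seem to mean higher polarization but the record does not say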
Target sequence (P41235 whole entry, looked up): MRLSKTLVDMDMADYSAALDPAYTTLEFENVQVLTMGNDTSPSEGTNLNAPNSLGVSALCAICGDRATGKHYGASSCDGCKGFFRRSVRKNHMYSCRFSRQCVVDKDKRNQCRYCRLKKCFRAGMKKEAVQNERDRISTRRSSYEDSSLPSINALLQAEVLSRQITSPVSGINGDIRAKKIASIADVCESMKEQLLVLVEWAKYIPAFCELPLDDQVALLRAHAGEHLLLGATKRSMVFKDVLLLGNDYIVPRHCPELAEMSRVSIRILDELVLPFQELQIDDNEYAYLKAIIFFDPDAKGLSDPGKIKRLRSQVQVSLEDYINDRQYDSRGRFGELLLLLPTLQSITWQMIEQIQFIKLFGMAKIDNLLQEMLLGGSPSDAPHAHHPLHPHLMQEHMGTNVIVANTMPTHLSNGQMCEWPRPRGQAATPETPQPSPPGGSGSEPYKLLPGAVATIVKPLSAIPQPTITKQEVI
rRNA inh HTS: reduced GFP signal of wild-type E. coli, primary screen, bacterial rRNA inhibitor project, GFP/RFP fluorescence, OD600, single point. GFP signal change (wild-type ribosome), % (no concentration beside the values). E. coli WT GFP vs humanized-ribosome RFP mutants, 24 h; stronger effect = lower value; DMSO median 0, no signal -100. 350,000 compounds, 1.6% hits;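 active = significant combined selectivity score with lowered wild-type GFP, culture density cut under 30%, mutant RFP and density less affected; inactive = any of these conditions unmet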; note: one replicate is shown; some compounds called inactive have numbers as strong as hits
MLL AF4-AF9 inh: inhibitors of AF4 peptide binding to AF9, primary screen, biochemical, AlphaScreen, biotin-AF4 peptide, FLAG-AF9, single point | inhibition, % at 10 µM | 350,000 compounds, 0.47% hits;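 active = every replicate reaching a set inhibition limit, whatever the replicate mean, cut at about 25% in these data; inconclusive = mean inhibition reaches that limit but some replicates miss it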;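 note: 0% = plate neutral control median and 100% = total signal loss; the record names both 10 and 1 µM as test concentration; the first replicate is given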
rRNA inh HTS OD600: also measured in rRNA inh HTS; calls as there; OD600 change, %; measured here: OD600 growth;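 optical density of the mix in the first replicate; 0 = DMSO median and -100 = no signal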
rRNA inh HTS RFP: second read-out of rRNA inh HTS, no call of its own (marks repeat the call); RFP signal change, %; measured here: RFP humanized mutant strains;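 first replicate; 0 = DMSO median and -100 = no signal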
Numbers without * were called inactive; i = inactive; ? = inconclusive; . = no result given. This is a subset; the hit share may differ from the screen's.

SMILES | ALR inh | E coli growth | Vif TR-FRET | FGF22 binding | HNF4A DNA FP | rRNA inh HTS | rRNA inh HTS OD600 | rRNA inh HTS RFP | MLL AF4-AF9 inh
O=C(NC(=S)Nc1ccc(Cc2ccncc2)cc1)c1ccccc1 | . | 0.69 | -6% | . | 4.6 | . | . | . | .
O=S(=O)(c1ccc(F)cc1)N1CCN(C(=S)NCc2ccco2)CC1 | -7 | 0.72 | 1% | . | 4.4 | . | . | . | .
C=CCc1ccccc1OCC(CN1CCCCC1)OC(C)=O (centres undefined) | -2 | 0.67 | 14% | . | 0.6 | . | . | . | .
Cc1ccc(C(=O)NCC(=O)N2CCN(c3ccccc3)CC2)cc1 | 13 | 0.68 | -5% | i | -3.4 | 11 | 17 | 3.6 | 2.5
CC(=O)C1=C(O)C=C(c2ccco2)CC1c1ccco1 (centres undefined) | 19 | 0.64 | 24% | . | -2.7 | . | . | . | .
COCCn1c(SCC(=O)N2CCOCC2)nc2c(c1=O)SCC2 | -2 | 0.7 | . | i | -1.8 | 7 | 4 | -1.0 | -2.6
CC(C)C(=O)NCCc1nc(-c2ccccc2)no1 | 0 | 0.66 | . | . | -5.7 | . | . | . | .
CCn1cc(Cl)c(C(=O)Nc2ccc(OC)c(OC)c2)n1 | -18 | 0.7 | 14% | . | 2.5 | 6 | -3 | 0.0 | 1.7
CC(=O)c1ccc(-c2ccc(C(=O)N3CCC(C(N)=O)CC3)o2)cc1 | -31 | 0.68 | . | i | 1.1 | 12 | -3 | 5.2 | 1.7
COc1ccc(C)cc1N(CC(=O)Nc1cccnc1)S(=O)(=O)c1ccccc1 | 0 | 0.69 | . | i | -2.6 | -22 | -26 | -3.1 | 1.1
COC(=O)c1ccccc1NC(=O)/C=C/C(=O)O | . | 0.68 | . | i | 1.3 | . | . | . | -3.6
COCC(=O)Nc1ccc2c(c1)OC[C@@H](C)NC[C@@H](C)[C@H](OC)CN(C)C2=O | . | . | . | i | . | 2 | 2 | -0.3 | 0.1
CCOc1ccc(-c2nc(C#N)c(N3CCN(CC)CC3)o2)cc1 | -7 | 0.69 | 23% | . | 0.5 | . | . | . | .
COc1cccc(OC)c1C(=O)Nc1ccc2c3c(cccc13)CC2 | 4 | 0.69 | -14% | . | -5.2 | . | . | . | .
CCC(=O)N1CC2(C1)[C@H](c1ccc(-c3ccccc3C)cc1)[C@@H](CO)N2C(C)=O | . | . | . | i | . | -1 | -6 | 0.7 | 0.5
CCCNC(=O)C(Cc1ccccc1)NS(=O)(=O)c1ccc2c(c1)c(=O)n(C)c(=O)n2C (centres undefined) | -15 | 0.72 | -5% | i | 2.7 | 1 | 2 | -0.7 | -0.1
CO[C@@H]1CC[C@H]2CCN(C)C(=O)C[C@H](c3ccccc3)CN(C)C(=O)c3cccc(C#N)c3OC[C@@H]1O2 | . | . | . | i | . | -3 | 2 | -6.1 | 5.2
CCOc1ccc(NC(=O)COC(=O)CCN2C(=O)C3CC=CCC3C2=O)cc1OCC (centres undefined) | -17 | 0.66 | 3% | i | -1.6 | 7 | 12 | -0.8 | 20
Cc1cc(Cl)cc(C)c1OCCCCCn1ccnc1 | -2 | 0.65 | . | i | 5.0 | -42 | -71 | -16 | 11
COc1ccc2c(C)cc(SCC(=O)NCCN3C(=O)CSC3=O)nc2c1 | 8 | 0.66 | . | . | 3.1 | . | . | . | .

Part of the list above in order of number of heavy atoms, low to high.
SMILES | ALR inh | E coli growth | Vif TR-FRET | FGF22 binding | HNF4A DNA FP | rRNA inh HTS | rRNA inh HTS OD600 | rRNA inh HTS RFP | MLL AF4-AF9 inh
CC(C)C(=O)NCCc1nc(-c2ccccc2)no1 | 0 | 0.66 | . | . | -5.7 | . | . | . | .
Cc1ccc(C(=O)NCC(=O)N2CCN(c3ccccc3)CC2)cc1 | 13 | 0.68 | -5% | i | -3.4 | 11 | 17 | 3.6 | 2.5
COc1ccc2c(C)cc(SCC(=O)NCCN3C(=O)CSC3=O)nc2c1 | 8 | 0.66 | . | . | 3.1 | . | . | . | .
CCOc1ccc(NC(=O)COC(=O)CCN2C(=O)C3CC=CCC3C2=O)cc1OCC (centres undefined) | -17 | 0.66 | 3% | i | -1.6 | 7 | 12 | -0.8 | 20

Following part.
SMILES | ALR inh | E coli growth | Vif TR-FRET | FGF22 binding | HNF4A DNA FP | rRNA inh HTS | rRNA inh HTS OD600 | rRNA inh HTS RFP | MLL AF4-AF9 inh
O=C(CCCc1ccncc1)c1ccccc1 | . | . | . | i | -3.3 | 2 | 6 | -0.1 | -16
CN(Cc1nc(-c2cccs2)no1)CC(O)c1ccccc1 (centres undefined) | . | 0.69 | 0% | i | 2.6 | 61 | -11 | 0.5 | 6.8
COCC(=O)N(C)C[C@@H]1Oc2ncc(C#Cc3ccc(OC)cc3)cc2C(=O)N([C@H](C)CO)C[C@@H]1C | . | . | . | i | . | 1 | 3 | -2.7 | 0.0
CCN(CC)CC(C)(C)NS(=O)(=O)c1ccc(Cl)cc1 | 0 | 0.69 | 2% | . | -0.6 | 10 | 5 | -4.0 | 2.2
CC1CCCN(C(=O)CN2C(=O)NC3(CCCCC3C)C2=O)C1 (centres undefined) | . | 0.65 | . | i | 0.5 | 15 | 8 | 0.2 | -1.2
CS(=O)(=O)N1CCN(c2ccccc2NC(=O)CSc2ccc(Cl)cc2)CC1 | -1 | 0.72 | 75% | . | 0.8 | . | . | . | .
C[C@H](CO)N1C[C@H](C)[C@H](CN(C)Cc2ccc3c(c2)OCO3)Oc2c(NC(=O)Nc3ccc(F)cc3)cccc2C1=O | . | . | . | i | . | 2 | -9 | 0.3 | 4.6
CC1CCN(C(=S)c2ccc([N+](=O)[O-])cc2)CC1 | -15 | 0.67 | 14% | i | -3.9 | 5 | 5 | -3.0 | -23
COc1ccc(/C=C2\Sc3ccc(C(=O)N4CCN(Cc5ccccc5)CC4)cc3N(C)C2=O)cc1OC | -10 | 0.75 | . | i | 6.7 | -1 | -8 | 18 | 12
Cc1cc2c3ccccc3[nH]c(=O)n2n1 | . | . | -2% | i | 4.5 | 2 | 4 | -3.4 | -1.4
COc1ccccc1N1CCN(C(=O)c2cc3c(C)nc4ccccc4c3o2)CC1 | 1 | 0.7 | 1% | i | 0.3 | -29 | -60 | -2.0 | 4.4
O=C1c2ccccc2C(=O)N1CCC#Cc1ccc2cc(CCCO)oc(=O)c2c1 | -3 | 0.71 | . | i | -2.4 | 3 | 3 | -2.0 | 1.5
CC(=O)c1cc2c(cc1NS(=O)(=O)c1ccccc1)OCO2 | 0 | 0.71 | -8% | . | 4.2 | . | . | . | .
COc1ccc2nc(SCc3cnc(C)nc3N)[nH]c2c1 | -3 | 0.61 | 9% | i | -0.3 | 9 | 6 | -12 | 2.3
N#C[C@H]1[C@H](c2ccc(C3=CCCC3)cc2)[C@@H](CO)N1c1nc(-c2ccccc2)cs1 | . | . | . | i | . | -1 | 3 | -1.9 | 2.2
CNC(=O)c1ccsc1NC(=O)c1ccc(S(=O)(=O)N2CCc3ccccc32)cc1 | -2 | . | ? | i | 0.1 | -14* | -3.2* | -0.6* | 1.5
CCCNC(=O)C[C@H]1C[C@@H]2c3cc(NC(=O)Nc4ccccc4F)ccc3O[C@@H]2[C@H](CO)O1 | . | . | . | i | . | 3 | 0 | -2.7 | -11
C=CCn1c(N)c(C(=O)Nc2ccc(C)c(C)c2)c2nc3ccccc3nc21 | -18 | 0.73 | -3% | . | 4.1 | . | . | . | .
c1cc(-c2cn(C[C@H]3CC[C@@H]([C@@H]4CC[C@H](Cn5cc(-c6ccsc6)nn5)O4)O3)nn2)cs1 | -10 | . | . | i | 1.9 | 10 | 7 | -2.7 | -43
Cc1ccc(S(=O)(=O)/N=C2/NC(=O)/C(=C/c3ccccc3)S2)cc1 | 30 | 0.64 | -9% | . | 0.5 | -48 | -75 | -11 | -3.2
COc1ccc(NC(=O)c2cc(C3CCCCN3S(=O)(=O)Cc3ccccc3)on2)cn1 (centres undefined) | . | . | . | i | -2.4 | -5 | -24 | 0.6 | 1.6
COc1ccc(CN(C)C[C@H]2OCCCC[C@H](C)Oc3ccc(NS(=O)(=O)c4ccc(F)cc4)cc3C(=O)N([C@H](C)CO)C[C@H]2C)cc1 | . | . | . | i | . | 6 | -27 | 22 | 9.6
CSc1ncccc1C(=O)OCc1nc2ccsc2c(=O)[nH]1 | . | 0.67 | 3% | i | -1.0 | -1 | -3 | -2.2 | -8.3
O=C(Nc1ncccn1)c1cccs1 | -15 | 0.75 | -5% | . | 0.5 | . | . | . | .
COc1ccc2c3c([nH]c2c1)[C@H](CO)NCC31CCN(C(=O)Nc2ccc3c(c2)OCO3)CC1 | . | . | . | i | . | 0 | 4 | 2.8 | -1.3
C[C@@H]1CN([C@@H](C)CO)C(=O)c2cc(-c3ccc(F)cc3)cnc2O[C@@H]1CN(C)C(=O)Cc1ccccn1 | . | . | . | i | . | 0 | 0 | -1.6 | -3.1
C[C@H]1CCCCO[C@H](CN(C)Cc2ccncc2)[C@@H](C)CN([C@@H](C)CO)C(=O)c2cc(NC(=O)Nc3ccc4c(c3)OCO4)ccc2O1 | . | . | . | i | . | -2 | 8 | 5.4 | 7.7
C[N+](C)(CC#N)C/C=C\c1ccccc1 | -2 | 0.69 | . | i | 1.1 | 7 | 6 | -0.4 | 0.2
Cc1cc(NC(=O)CCCSc2nc(-c3ccco3)cc(C(F)(F)F)n2)n(-c2ccccc2)n1 | -30 | 0.75 | . | . | 1.9 | . | . | . | .
Cc1ccc(S(=O)(=O)c2nc(S(C)(=O)=O)sc2N2CCC(O)CC2)cc1 | -4 | 0.66 | . | i | -4.1 | 3 | 4 | 0.0 | -0.6
O=C(N/N=C/c1ccc(F)cc1)c1ccc(-n2cnnn2)cc1 | . | . | 3% | i | 1.3 | 9 | 18 | 3.4 | -1.8
COc1ccc(Cc2noc(CN3CCCN(C4Cc5ccccc5C4)CC3)n2)cc1OC | -12 | 0.71 | -6% | i | -1.2 | 10 | 5 | 5.1 | -1.0
C=CCn1c(COc2cccc(C)c2)nnc1SCn1nnc2ccccc2c1=O | -3 | 0.65 | 7% | i | -2.6 | -43* | -17* | -6.8* | 5.6
N#Cc1nc(-c2ccco2)oc1N1CCc2ccccc2C1 | -3 | 0.67 | ? | . | 16 | . | . | . | .
CC(C)C1Oc2ccccc2C(=O)N(CC(=O)c2ccc3c(c2)OCCO3)C1=O (centres undefined) | -2 | 0.75 | . | i | 1.4 | 3 | 26 | -1.7 | -0.8
O=C(/C=C/c1ccccc1)NCC1(c2ccccc2)CCOCC1 | -3 | 0.71 | ? | i | 1.4 | -2 | -4 | 0.2 | -1.0
O=C(Nc1nnc(-c2ccc3c(c2)CCCC3)o1)c1ccccc1 | . | . | -2% | i | -2.3 | -57 | -76 | -17 | -1.0
O=C(O)C1CSC(c2ccccc2)N1C(=O)c1ccco1 (centres undefined) | -3 | 0.66 | 6% | . | -0.6 | . | . | . | .
CCN1CCN(Cc2nnc(-c3ccccc3)o2)CC1 | -2 | 0.66 | -8% | i | -1.8 | 9 | 6 | 0.7 | -3.0
COc1ccc(-c2nn(-c3ccccc3)cc2/C=N/NC(N)=S)cc1OC | 15 | . | 28% | . | 0.3 | . | . | . | .
COCCNS(=O)(=O)c1cc(OC)ccc1OC | -7 | 0.64 | -5% | i | 0.5 | 22 | 14 | -0.9 | -0.8
